Methyltransferases – Primary Screen for Target Class Profiling of Small Molecule Inhibitors of Methyltransferases; AID 1745853, 2022; purified enzyme, MTase-Glo SAH luminescence; stronger effect = lower value; 3.9% of 25,000 active; calls only at 40 µM; active = -50% or lower on at least one of six enzymes; inconclusive = the cases between; inactive = as a rule above -30% on all six;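 note: enzymes were COMT GAMT GNMT HNMT NNMT and PNMT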
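Each enzyme was assayed with SAM and its substrate. SAH formation detected by MTase-Glo luminescence; single-point 40 uM screen[…].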
Calls only; i = inactive; u = inconclusive; + = active, no number. % is set by controls: 0 for no effect and ±100 for the full control effect. This is a subset; count on the stated rates, not on these rows.

SMILES | Methyltransferases
CC1(C(=O)NC2CCCCCCC2)Cn2c(ccc2-c2ccco2)C(=O)N1Cc1ccc(F)cc1 (stereo not drawn) | i
COCCCNC(=O)CCc1nnc2n(Cc3ccc(F)cc3)c(=O)c3ccccc3n12 | i
OCC1(O)CCCN(Cc2cnc(NCc3ccccc3)nc2)C1 (stereo not drawn) | i
Cn1c(=O)c2ccc(C(=O)NC3CCCC3)cc2n2c(SCC(=O)c3ccc(F)cc3)nnc12 | i
COCCNC(=O)c1ncn2c1C(=O)N(C1CC1)C(C)(C(=O)NCc1cccc(C)c1)C2 (stereo not drawn) | i
COc1cccc(CN2CCC(C(=O)N3CCCCCCNC(=O)CC3)CC2)c1 | i
CS(=O)(=O)N1CCC(C2CCN(Cc3ccc4c(c3)CCO4)C2)CC1 (stereo not drawn) | i
O=C(Nc1cc(F)ccc1F)N1Cc2c(sc3c2CCCC3)-n2cccc2C1c1cccc(F)c1 (stereo not drawn) | i
O=C(NCc1ccc(F)cc1)C1=NOC2CN(C(=O)Nc3cccnc3)CC12 (stereo not drawn) | i
C[C@@H]1O[C@@H](O[C@H]2[C@H](OC(=O)[C@]34CCC(C)(C)C[C@H]3C3=CCC5[C@@]6(C)CC[C@H](O[C@@H]7O[C@H](CO[C@@H]8OC[C@H](O)[C@H](O)[C@H]8O)[C@@H](O)[C@H](O)[C@H]7O)C(C)(C)C6CC[C@@]5(C)[C@]3(C)C[C@H]4O)OC[C@@H](O)[C@@H]2O)[C@H](O)[C@H](O[C@@H]2OC[C@](O)(CO)[C@H]2O)[C@H]1O[C@@H]1OC[C@H](O)[C@H](O[C@@H]2OC[C@@H](O)[C@H](O)[C@H]2O)[C@H]1O (stereo partly drawn) | i
O=C1NCC2(CCCN(C(=O)c3cn[nH]c3-n3cnnn3)C2)O1 (stereo not drawn) | i
Cn1c(=O)n(C)c2cc(S(=O)(=O)Nc3ccc(F)c(F)c3)ccc21 | i
COc1ccc(-c2cc3n(n2)CC(C)(C(=O)NCc2ccccc2OC)N(c2cc(C)ccc2OC)C3=O)cc1 (stereo not drawn) | i
O=C(NC1CCCCC1)c1nc[nH]c1C(=O)NCCc1c[nH]c2ccccc12 | i
COC[C@H]1CCCN1[C@@H]1[C@H](O)[C@H](CO)O[C@@H]1CNCc1ccc(F)cc1 | i
CCCC1c2cccn2CCN1C(=O)Nc1ccccc1C(F)(F)F (stereo not drawn) | +
CCN(c1nc(N)c(C(=O)N=C(N)N)nc1Cl)C(C)C | i
COc1ccc(/C=C/C(=O)O[C@@H]2[C@@H](O)[C@@H](O)[C@H](O[C@@H]3C=C(CO)[C@H]4[C@H](O[C@@H]5O[C@H](CO)[C@@H](O)[C@H](O)[C@H]5O)OC=C[C@H]43)O[C@H]2C)cc1O | u
O=C(CCc1nnc2n(Cc3ccc(Cl)cc3)c(=O)c3ccccc3n12)NCC1CCCO1 (stereo not drawn) | i
CNCCC(Oc1ccccc1OC)c1ccccc1 (stereo not drawn) | i
CCn1nc(C)c(-c2cc(C(=O)N3CCCCCCNC(=O)CC3)no2)c1C | i
Cc1cccc(CCNC(=O)CCc2nnc3n(Cc4ccc(F)cc4)c(=O)c4ccccc4n23)c1 | i
COc1ccccc1-n1nc(Cc2ccccc2)n(CC(=O)NC(C)C2CC2)c1=O (stereo not drawn) | i
CCCC(=O)N(c1ccc(OCC)cc1)S(=O)(=O)c1ccc2c(c1)n(C)c(=O)n2C | i
O=c1[nH]c(-c2ccc(F)cc2)nc2c1CCN(S(=O)(=O)c1cccs1)C2 | i
Cn1cc(CN(Cc2c(C(=O)N3CCCC3)nc3sccn23)C2CC2)cn1 | i
COC(=O)C1Cc2c([nH]c3ccccc23)C(C)N1 (stereo not drawn) | i
CC(C)(C)c1cc2n(n1)CC(C)(C(=O)NC1CCCCCC1)N(Cc1cccc(F)c1)C2=O (stereo not drawn) | i
CC(C)Oc1ccc(CN2C(=O)c3cc4occc4n3CC2(C)C(=O)NC2CCCCCC2)cc1 (stereo not drawn) | i
COc1ccc(-c2n[nH]n3c2nc(=O)c2ccc(C(=O)NCCCOC(C)C)cc23)cc1 | i
Cc1ccc2n1CCN(C(=O)Nc1ccc3c(c1)OCCO3)C2C(C)C (stereo not drawn) | i
CN1C(=O)c2cc(C(=O)NCc3ccc(Cl)cc3)nn2CC1(C)C(=O)NC1CCCCCC1 (stereo not drawn) | i
CCC[C@H]1CN(C(=O)c2ccc3c(c2)NC(=O)CN3)C[C@@H]1N | i
COc1ccc2cc3n(c2c1)CC(C)(C(=O)NC1CCCCCC1)N(CCN1CCOCC1)C3=O (stereo not drawn) | i
CCC(C)C(=O)O[C@H]1[C@@H](OC(=O)c2ccoc2)C[C@](C)(O)[C@]23OC(C)(C)[C@H](C[C@H](OC(=O)c4ccoc4)[C@]12COC(C)=O)[C@H]3OC(C)=O (stereo partly drawn) | i
COc1ccc(NC(=O)CCc2ccnc(N3CCCC3)c2)c(OC)c1 | +
COC(=O)[C@@H](O)[C@H]1[C@@]2(C)CC3(O)[C@@H](C(=O)[C@H]2O)[C@]24O[C@]25CC(=O)O[C@@H](c2ccoc2)[C@]5(C)CCC4[C@]13C (stereo partly drawn) | i
O=C(Cn1nc2n(Cc3ccc(F)cc3)c(=O)c3ccccc3n2c1=O)Nc1cccc(Cl)c1 | i
CCOC(=O)c1cnc2ccc(Br)cc2c1Nc1ccc(C(C)=O)cc1 | i
COCCNc1nc(C)nc2c1CCN(C(=O)c1ccoc1)CC2 | i
Cn1ccnc1CN1CCN(CC2(O)CNCCOC2)CC1 (stereo not drawn) | i
CC(C)Cn1c(=O)c2ccc(C(=O)NC3CCCC3)cc2n2c(SCC(=O)NC(C)C)nnc12 | i
CN(CC(=O)NCc1cccnc1)S(=O)(=O)c1ccc2[nH]c3c(c2c1)CCCC3 | i
CCOc1ccccc1Nc1nc2c(S(=O)(=O)c3ccccc3)nnn2c2ccccc12 | i
NS(=O)(=O)Nc1ncnc(OCCOc2ncc(Br)cn2)c1-c1ccc(Br)cc1 | u
CC(C)c1ccc(N2C(=O)c3cc4ccccc4n3CC2(C)C(=O)NC2CCCC2)cc1 (stereo not drawn) | i
OCCc1ccc(O[C@@H]2O[C@H](CO)[C@@H](O)[C@H](O)[C@H]2O)c(O)c1 | i
COc1cccc(CN2C(=O)c3c(NC(C)=O)c4ccccc4n3CC2(C)C(=O)NCCC(C)C)c1 (stereo not drawn) | i
Cc1ccc(F)c(C(=O)NC(C)c2cnn(-c3ccccc3)c2C)c1Cl (stereo not drawn) | i
C=Cc1ccc(Cn2nc3n(CCC(C)C)c(=O)c4ccc(C(=O)NC(C)C)cc4n3c2=O)cc1 | i
Next results.
SMILES | Methyltransferases
O=C(c1cccnc1)N1CCC12Cc1ccccc1NC2=O (stereo not drawn) | i
CC(C)CCNC(=O)C1(C)Cn2nc(C(=O)NCCN3CCCC3)cc2C(=O)N1C (stereo not drawn) | i
COCCCOc1ccnc(CS(=O)c2nc3ccccc3[nH]2)c1C (stereo not drawn) | u
C=Cc1ccc(Cn2nc3n(CCC)c(=O)c4ccc(C(=O)NC(C)CC)cc4n3c2=O)cc1 (stereo not drawn) | i
COc1cccc(CN2C(=O)c3cc(C(C)(C)C)nn3CC2(C)C(=O)NC2CCCCC2)c1 (stereo not drawn) | i
CCCn1c(=O)c2ccc(C(=O)NC3CCCCC3)cc2n2c(=O)n(Cc3ccc(F)cc3Cl)nc12 | i
c1ccc(-c2ccc(C(c3ccccc3)n3ccnc3)cc2)cc1 (stereo not drawn) | u
CC1(C(=O)NC2CCCCCCC2)Cn2c(ccc2-c2ccco2)C(=O)N1Cc1ccccc1 (stereo not drawn) | i
CCN1C(=O)c2cc(C(=O)NCc3ccccc3)nn2CC1(C)C(=O)NC1CCCC1 (stereo not drawn) | i
COc1ccc(C(OC2OC(CO)C(O)C(O)C2O)C(C)O)cc1 (stereo not drawn) | i

Shown tab-delimited: entries from further up
SMILES	Methyltransferases
OCCc1ccc(O[C@@H]2O[C@H](CO)[C@@H](O)[C@H](O)[C@H]2O)c(O)c1	i
COc1cccc(CN2C(=O)c3c(NC(C)=O)c4ccccc4n3CC2(C)C(=O)NCCC(C)C)c1 (stereo not drawn)	i
Cc1ccc(F)c(C(=O)NC(C)c2cnn(-c3ccccc3)c2C)c1Cl (stereo not drawn)	i
C=Cc1ccc(Cn2nc3n(CCC(C)C)c(=O)c4ccc(C(=O)NC(C)C)cc4n3c2=O)cc1	i
O=C(c1cccnc1)N1CCC12Cc1ccccc1NC2=O (stereo not drawn)	i
CC(C)CCNC(=O)C1(C)Cn2nc(C(=O)NCCN3CCCC3)cc2C(=O)N1C (stereo not drawn)	i
COCCCOc1ccnc(CS(=O)c2nc3ccccc3[nH]2)c1C (stereo not drawn)	u
C=Cc1ccc(Cn2nc3n(CCC)c(=O)c4ccc(C(=O)NC(C)CC)cc4n3c2=O)cc1 (stereo not drawn)	i
COc1cccc(CN2C(=O)c3cc(C(C)(C)C)nn3CC2(C)C(=O)NC2CCCCC2)c1 (stereo not drawn)	i
CCCn1c(=O)c2ccc(C(=O)NC3CCCCC3)cc2n2c(=O)n(Cc3ccc(F)cc3Cl)nc12	i
c1ccc(-c2ccc(C(c3ccccc3)n3ccnc3)cc2)cc1 (stereo not drawn)	u
CC1(C(=O)NC2CCCCCCC2)Cn2c(ccc2-c2ccco2)C(=O)N1Cc1ccccc1 (stereo not drawn)	i
CCN1C(=O)c2cc(C(=O)NCc3ccccc3)nn2CC1(C)C(=O)NC1CCCC1 (stereo not drawn)	i
COc1ccc(C(OC2OC(CO)C(O)C(O)C2O)C(C)O)cc1 (stereo not drawn)	i

Next part
SMILES | Methyltransferases
CN(C)[C@@H]1CN(C(=O)CCc2ccccc2)CC[C@]1(O)c1ccccc1 | i
Cc1ccc(C(=O)N2CCCCCCNC(=O)[C@@H]3C[C@@H](c4nc(Cc5ccccc5)no4)C[C@@H]32)s1 | i
Cc1cccc(N2CCN(C(=O)CCc3nnc4n(CCc5ccccc5)c(=O)c5ccccc5n34)CC2C)c1 (stereo not drawn) | i
Fc1ccc(-c2noc([C@@H]3Cc4nc[nH]c4CN3CCCc3ccccc3)n2)cc1Cl | i
CC(C)CCn1c(=O)c2ccc(C(=O)NC(C)C)cc2n2c(=O)n(Cc3c(F)cccc3Cl)nc12 | i
CCC1C(=O)OC23C=C[C@@H]4C(C(=O)O)=CO[C@H](O[C@@H]12)[C@@H]43 (stereo partly drawn) | i
CCC(C)NC(=O)c1ccc2c(=O)n(C)c3nn(CC(=O)NCc4ccc(C)cc4)c(=O)n3c2c1 (stereo not drawn) | i
CC1(C)CCC[C@]2(C)C1CC=C(CO)[C@H]2CC/C(=C/CO)CO (stereo partly drawn) | i
Cc1c(O)cc2c(c1O)COC1(O)CCCOC21 (stereo not drawn) | i
CCCn1c(=O)c2ccc(C(=O)NC(C)CC)cc2n2c(SCC(=O)Nc3ccc(CC)cc3)nnc12 (stereo not drawn) | i
Cc1cc(C(=O)NCC2(COc3ccc(S(C)(=O)=O)cc3)C[C@@H](O)[C@@H](O)C2)n(C)n1 (stereo partly drawn) | i
O=c1[nH]c2ccccc2n1Cc1ccccc1Cl | i
CC(=O)OC1CC2C3(C)CCC(OC(=O)CC(=O)O)C(C)(C)C3CCC2(C)C2(C)CCC(C3(C)CCC(=O)O3)C12 (stereo not drawn) | i
COc1cccc(-c2nnc3n(Cc4ccc(C)cc4)c(=O)c4ccccc4n23)c1O | i
C/C=C/C=C/C=C/C(=O)O[C@@H]1[C@@H](OC)C2=C(C(=O)N(C(CCC(=O)O)C(=O)O)C2)[C@@]2(C)CCCC(C)(C)[C@H]12 (stereo partly drawn) | i
CC1=CC(=O)CC(C)(C)C1CCC(C)O[C@@H]1O[C@H](CO[C@@H]2OC[C@@H](O)[C@H](O)[C@H]2O)[C@@H](O)[C@H](O)[C@H]1O (stereo partly drawn) | +
COc1ccc(CCO[C@@H]2O[C@H](CO[C@H]3OC[C@](O)(CO)[C@H]3O)[C@@H](OC(=O)/C=C/c3ccc(O)c(O)c3)[C@H](O[C@@H]3O[C@@H](C)[C@H](O)[C@@H](O)[C@H]3O)[C@H]2O)cc1OC | i
CC1=NOC2(CCN(Cc3ccncc3)CC2)C1 | i
Cc1noc(C)c1-c1cn(C)c(=O)n2cc(COc3ccc(Cl)cc3)nc12 | i
CC#C[C@@H](CC(=O)O)c1ccc(OCc2cccc(-c3ccc(C(F)(F)F)cc3)c2)cc1 | +
Cc1cc(C)cc(N2C(=O)c3cc(-c4cccs4)nn3CC2(C)C(=O)NC2CCCCC2)c1 (stereo not drawn) | i
O=C1CCS(=O)(=O)N1c1ccc(S(=O)(=O)NCCN2CCOCC2)cc1 | i
COc1ccc2c3c1O[C@H]1C[C@@H](O)C=C[C@@]31CCN(C)C2 | i
C=Cc1ccc(CSc2nnc3n(CCCOC(C)C)c(=O)c4ccccc4n23)cc1 | i
COc1cccc(N2CCN(S(=O)(=O)c3cccc(-c4nc(-c5ccccc5)no4)c3)CC2)c1 | i
CNC(=O)N1C[C@@H](Oc2ccccc2)C[C@H]1C(=O)NCCOC | i
COc1cc(-c2cn(C3CCc4c(F)cccc4N(CC(F)(F)F)C3=O)nn2)ccc1-n1cnc(C)c1 (stereo not drawn) | u
CCN(CC)CCNC(=O)CCCc1nnc2n3nc(-c4ccccc4)nc3c3ccccc3n12 | +
COc1ccc(CCNC(=O)Cn2ccc3cc(S(=O)(=O)N4CCCCC4)ccc32)c(OC)c1 | i
CC1(C(=O)NC2CCCCCCC2)Cn2c(cc3occc32)C(=O)N1CCN1CCOCC1 (stereo not drawn) | i
COc1ccccc1CNC(=O)Cn1ccc2cc(S(=O)(=O)N3CCCCC3)ccc21 | i
CC1CCN(S(=O)(=O)c2ccc3c(ccn3CCC(=O)NC(C)C)c2)CC1 | i
O=S(=O)(NCCn1c(-c2ccc(F)cc2)nc2ccccc21)c1cc(F)ccc1F | i
CCCn1c(=O)c2ccc(C(=O)NC(C)C)cc2n2c(=O)n(CC(=O)c3ccc(OC)cc3)nc12 | i
CCc1cccc(NC(=O)Cn2c(=O)oc3cc(S(=O)(=O)N4CCCCC4)ccc32)c1 | i
